Screening data (PubChem BioAssay)
TRPML1 agonist: human mucolipin-1 channel agonism; hit rate 0.12% among 410,000; TRPML1-expressing cells, Ca2+ dye fluorescence, FDSS; host cell line not named in the record; reference of the full effect not given here; Q9GZU1; activation, % (concentration not given with the values); in the data active = activation above about 50%; inconclusive = about 30% to 50%; inactive = below about 30%; note: 0% is about no effect; the text of the record puts the active cut at 80%
Target sequence (Q9GZU1 whole entry, looked up): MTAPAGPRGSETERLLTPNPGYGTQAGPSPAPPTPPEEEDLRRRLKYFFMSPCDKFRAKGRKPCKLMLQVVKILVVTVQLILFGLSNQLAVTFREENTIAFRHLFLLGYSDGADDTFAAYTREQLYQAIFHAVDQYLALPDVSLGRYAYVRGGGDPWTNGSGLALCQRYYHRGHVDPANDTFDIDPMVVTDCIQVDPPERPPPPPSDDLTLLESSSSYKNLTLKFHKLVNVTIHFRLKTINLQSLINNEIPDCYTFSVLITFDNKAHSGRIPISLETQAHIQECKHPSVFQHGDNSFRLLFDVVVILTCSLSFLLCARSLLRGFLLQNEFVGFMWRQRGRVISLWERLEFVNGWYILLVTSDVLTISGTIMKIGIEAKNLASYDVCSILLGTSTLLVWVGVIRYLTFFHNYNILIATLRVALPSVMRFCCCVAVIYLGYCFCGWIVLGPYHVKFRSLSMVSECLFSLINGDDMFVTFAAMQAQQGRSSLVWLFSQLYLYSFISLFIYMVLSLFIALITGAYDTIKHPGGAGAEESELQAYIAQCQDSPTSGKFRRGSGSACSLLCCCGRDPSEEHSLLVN
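Kinetic FDSS Ca2+ read in Tet-induced TRPML1-DL cells (ABD Ca8 dye plus quencher, 45-90 min RT loading): baseline, then compound, then 110 s agonist window; EC80 agonist 54-4 at 4uM final added afterwards for a 110 s antagonist window.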
D2 agonist: agonists of human D2 dopamine receptor (beta-arrestin). DiscoveRx PathHunter D2 beta-arrestin, luminescence, 90 min; 100% = 57 uM dopamine signal. P14416. activation, % (concentration not given with the values). AID 624465. hit rate 0.084% among 360,000; in the data active = activation above about 40%; inconclusive = about 15% to 40%; inactive = below about 15%; note: compound concentration not given in the record; the text of the record calls up to 30% inactive
Target sequence (P14416 whole entry, looked up): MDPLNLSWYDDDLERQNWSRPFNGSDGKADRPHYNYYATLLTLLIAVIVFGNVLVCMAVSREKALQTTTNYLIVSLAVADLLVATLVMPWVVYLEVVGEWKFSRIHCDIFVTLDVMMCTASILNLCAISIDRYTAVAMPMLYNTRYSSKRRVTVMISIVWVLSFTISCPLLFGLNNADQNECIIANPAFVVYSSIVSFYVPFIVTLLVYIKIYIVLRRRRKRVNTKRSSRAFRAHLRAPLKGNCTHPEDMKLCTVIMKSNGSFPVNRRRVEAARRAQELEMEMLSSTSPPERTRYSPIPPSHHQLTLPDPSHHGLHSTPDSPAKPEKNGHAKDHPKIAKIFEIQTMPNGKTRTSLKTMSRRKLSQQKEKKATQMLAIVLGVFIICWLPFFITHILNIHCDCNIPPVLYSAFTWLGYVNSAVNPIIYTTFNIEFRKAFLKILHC
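Agonist mode: compounds alone added to overnight-plated D2 PathHunter cells for 90 min at 37 C, with 57 uM final dopamine (EC100) defining full response. Beta-arrestin recruitment detected by chemiluminescent reagent, read after 1 h at ambient temperature.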
Six1-Eya2 blk: inhibitors of human Six1/Eya2 interaction; Q15475+O00167; AlphaScreen GST-Six1/His-Eya2 binding, biochemical; hits give low values; control for the full effect not named in the record; activity change, % (no concentration beside the values); hit rate 0.56% among 360,000; AID 651725; in the data active = activity change below about -65%; inconclusive = about -30% to -65%; inactive = above about -30%; note: % is set by controls: 0 for no effect and ±100 for the full control effect; compound concentration not given in the record
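GST-Six1 + His-Eya2 (5X stock: 250/500 nM); Tris pH 8.0, 300 mM NaCl, 0.05% BSA, 0.02% Tween 20; GSH donor/Ni acceptor beads; 1 h 37 °C dark; AlphaScreen readout.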
CtBP-E1A inh: CtBP/E1A binding inhibition; AlphaScreen GST-E1A/His-CtBP binding, 1536-well; hits give low values; control for the full effect not named in the record; activity change, % (concentration not given with the values); hit rate 0.49% among 340,000; in the data active means activity change below about -65%; inconclusive means about -30% to -65%; inactive means above about -30%; note: % is set by controls: 0 for no effect and ±100 for the full control effect
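GST-E1A and His-tagged CtBP (125 nM each as 5X stock) were preincubated with pin-transferred compound for 2 h at 37 °C in the dark, then glutathione donor and nickel acceptor beads were added for 1 h before AlphaScreen reading.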
PINK1 expr mod: changes PINK1 expression; PINK1 immunofluorescence, high-content cytometry, 24 h; Potency, µM (highest dose often 76.6 µM), for inactives: top-dose activation (PINK1 increase), hits mostly activators; hit rate 0.2% among 410,000; active = well fitted activation curve with a large enough effect; inconclusive = small, poorly fitted or top-dose-only effect; inactive = flat fitted curve, though single readings scatter; cell line not stated here;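 note: potency is the fitted concentration of half-maximal effect; % of control where 0% means no effect; nearly all actives have a fitted effect of over 65% in size; a mitochondrial uncoupler was the plate control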
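Decision-based qHTS: stable cells, 24 h exposure to five compound concentrations, CCCP as control. Fixed cells stained for PINK1 plus nuclear, mitochondrial and cell markers, cytometer read.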
D2 PAM: human D2 receptor positive allosteric modulation | P14416 | potentiation, % (no concentration beside the values) | AID 624464 | DiscoveRx D2 beta-arrestin cells, luminescence, 90 min; 100% = 57 uM dopamine signal | hit rate 0.23% among 360,000; active = potentiation of 50% or more; inconclusive = 30% to 50%; inactive = 30% or less;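 note: compound concentration not given in the record; tested on top of an EC20 dose of dopamine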
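PathHunter beta-arrestin assay in DiscoveRx D2 cells. Compounds were added with an EC20 of dopamine (50 nM final) for 90 min at 37 deg C. Luminescence was read 1 h after detection reagent, with 57 uM dopamine as the EC100 control.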
An asterisk follows results filed as active; ? = inconclusive; . = no result given; & = joins results of further samples; [ ] = remark or other dose.

Every second line gives: TRPML1 agonist, D2 agonist, Six1-Eya2 blk, CtBP-E1A inh, PINK1 expr mod, D2 PAM
COCCN(C(=O)c1snc(C(N)=O)c1N)C(C(=O)NC1CCCC1)c1cc(OC)c(OC)c(OC)c1 (configuration not stated)
    -0.2, -2.7, 4, 8, -0.2%, 1
COc1ccc(OC)c(NC(=S)NCc2cccs2)c1
    -0.4, -3.2, -8, -22, -0.4%, -22
CC1=NN(C(=O)c2ccc(Cl)cc2)C(O)(c2ccccc2)C1 (configuration not stated)
    -0.8, -3.6, -8, -1, 2.9%, -9
C=CCN(CC=C)C(=O)CN1C(=O)c2ccccc2C1=O
    -1.1, 2.5, 1, -18, 0.6%, -2
CCOc1cc(C(N)=O)cc(Br)c1OCC
    0.3, -1.0, -1, 4, -0.5%[38.3 µM], -13
COC(=O)c1ccc(NC(=S)N2CCN(Cc3ccccc3OC)CC2)cc1
    4.5, 1.7, -8, 4, -1.7%, -8
Cc1ccccc1C(=O)N1CCN(c2ccc(NC(=O)c3cccnc3)cc2)CC1
    0.6, -2.9, -15, -13, -0.4%, -3
CC(C(=O)Nc1cc([N+](=O)[O-])ccc1Cl)N1CCN(c2ccccc2O)CC1 (configuration not stated)
    1.8, 4.9, -12, -12, 2.6%, -10
COC(=O)c1ccc2c(=O)n(CCCCCC(=O)NCc3ccccc3)c(=O)[nH]c2c1
    0.0&0.2, 2.2, 7, 2, 2.3%, -4
CCOC(=O)c1sc(N2C(=O)C(O)=C(C(=O)c3ccc(C)o3)C2c2ccc(OC)c(OC)c2)nc1C (configuration not stated)
    0.4, 1.0, -13, -10, 1.9%, -9
Cc1cc(NC(=O)C2CC(c3ccccc3Cl)=NO2)no1 (configuration not stated)
    -0.9, -4.7, 3, 1, -0.6%, -13
CCN(CC)C(=O)Cn1cc(S(=O)(=O)CC(=O)NCc2ccc(C)cc2)c2ccccc21
    -0.1, 0.7, -4, -5, 1.6%, -12
Cc1nc(Nc2ccc(Cl)c(Cl)c2)sc1C(=O)Nc1ccccc1
    0.8, -2.9, -1, 3, -1.7%, 1
O=C(NC1CCCN(Cc2ccccc2F)C1)C1CCC1 (configuration not stated)
    -0.3, -1.0, 6, -2, 0.4%, -15
Cc1cc(Br)ccc1NC(=O)C1CCCO1 (configuration not stated)
    0.1, -0.9, 7, 7, 2.1%[38.3 µM], 0
CNC(=S)N1N=C(c2ccc(C)cc2)CC1c1ccc(OC)cc1 (configuration not stated)
    0.4, -3.8, -14, -10, 1.1%, -13
COc1ccc(CCN2C(=O)CCC3=C2CCC3=O)cc1OC
    0.0, -2.1, 3, 6, -0.1%, 5
CC(=O)Nc1cccc(C(=O)/C=C/c2ccc(Br)cc2)c1
    -0.1, -3.9, 5, -15, -1.2%, -25
Cc1ccc(C)c(SCC(=O)Nc2ccc(S(=O)(=O)Nc3ncccn3)cc2)c1
    1.0, 0.5, 0, 3, -1.1%, 1
Cc1ccc(-c2cc(C(=O)Nc3ccc(S(=O)(=O)Nc4ncccn4)cc3)[nH]n2)c(O)c1C
    0.8, -1.5, -21, -12, 4.8%, -2

Copied from above, 4 compounds:
Every second line gives: TRPML1 agonist, D2 agonist, Six1-Eya2 blk, CtBP-E1A inh, PINK1 expr mod, D2 PAM
COc1ccc(CCN2C(=O)CCC3=C2CCC3=O)cc1OC
    0.0, -2.1, 3, 6, -0.1%, 5
CC(=O)Nc1cccc(C(=O)/C=C/c2ccc(Br)cc2)c1
    -0.1, -3.9, 5, -15, -1.2%, -25
Cc1ccc(C)c(SCC(=O)Nc2ccc(S(=O)(=O)Nc3ncccn3)cc2)c1
    1.0, 0.5, 0, 3, -1.1%, 1
Cc1ccc(-c2cc(C(=O)Nc3ccc(S(=O)(=O)Nc4ncccn4)cc3)[nH]n2)c(O)c1C
    0.8, -1.5, -21, -12, 4.8%, -2

The listing continues:
Every second line gives: TRPML1 agonist, D2 agonist, Six1-Eya2 blk, CtBP-E1A inh, PINK1 expr mod, D2 PAM
COC(=O)c1sc2ncccc2c1OCc1ccccc1Cl
    3.1, 1.0, 16, 14, 1.8%, 2
Cn1c(C(=O)O)c(CC(=O)Nc2ccccc2F)c2ccccc21
    1.3, 2.9, -6, -7, -1.1%, -1
CCC(=O)Nc1cc(C(=O)O)ccc1Sc1ccccc1
    0.2, 5.8, -11, 1, -0.7%, -7
C=C[C@@H](C)N(Cc1ccc(OC)cc1)S(=O)(=O)N(Cc1ccccc1)[C@H](C=C)C(C)C
    1.5&0.5, -3.4, 19, 33, 1.7%, -3
CC(C)C[C@H]1CN=C(N(C)C)N1CC(C)C
    -0.2, 3.1, 11, 0, -0.7%, -5
COc1ccc(C2=Nc3ccccc3NC(=O)C2N(C(=O)c2cnc(C)cn2)c2ccc(N3CCOCC3)cc2)cc1 (configuration not stated)
    -0.5, -5.4, -9, -5, 2.5%, -8
NCCCC[C@@H]1NC(=O)c2cc([N+](=O)[O-])cc(I)c2SC[C@@H](C(N)=O)NC(=O)[C@H](Cc2ccc(O)cc2)NC1=O
    0.0, 5.0, -8, ., 0.0%, 8
CCC1=NN2C(=N)/C(=C\c3cccn3-c3ccc(C)cc3C)C(=O)N=C2S1
    -0.4, -7.4, -1, ., 4.8%, 2
CCOC(=O)C1CCCN(C2=NC(=O)/C(=C/c3ccc(N(C)C)cc3)S2)C1 (configuration not stated)
    ?, 0.1, -3, -14, 2.5%, -4
COc1ccc(/C=C(/NC(=O)c2ccccc2)c2nc3ccc(Cl)cc3[nH]2)cc1OC
    -1.0, -3.3, -4, -7, -0.1%, -23
COc1ccccc1C(=O)NNC(=O)C(=O)Nc1cccc(Cl)c1C
    0.2, -4.2, -10, -8, 0.6%, 8
CCCCN(CC)C(=O)c1n[nH]c(=O)c2ccccc12
    0.5, -3.2, 0, 6, 6.7%[38.3 µM], -1
COc1ccccc1NC(=O)CSc1nnnn1-c1ccc(F)cc1
    1.4, -1.0, -8, -18, -1.1%, -21
c1ccc(CO/N=C(\c2ccc(C3CC3)nc2)C2CC2)cc1
    1.2, 0.0, 30, 60, 2.2%, -1
CCOC(=O)CSc1nc(N)nc(C)c1Br
    6.0, -2.7, -1, 2, 8.9%, -4
Cc1ccc(NC(=O)NNC(=O)COc2ccc3ccccc3c2)cc1
    -0.1, -2.6, 21, -8, -1.8%, -13
O=C(NCc1cccnc1)c1csc2c1CCCC2
    -0.7, -4.5, -1, -5, -1.1%, -7
COc1ccc(CNC(=S)Nc2cccc(C)c2)cc1
    0.8, -1.9, 3, 6, 2.9%, -5
CCN(CC)S(=O)(=O)c1ccc(NC=C(C#N)C#N)cc1
    1.3, 2.7, 4, -3, 1.2%, -2
O=C(NNc1ccc(-c2csnn2)cc1)c1cc(Cl)cc(Cl)c1
    -0.6, -4.6, -12, -3, 5.5%, -11
CCOC(=O)c1c(C)nc2sc(C(N)=O)c(N)c2c1-c1ccccc1
    -1.2, -3.1, -12, -12, -2.3%, -14
COc1cc(OC)cc(-c2c(Sc3ccccc3)c3cc(-c4cnc(OC)nc4)ccc3n2C)c1
    0.2, ., 22, 5, 1.4%, .
C=CCc1ccccc1OCC(O)CN1CCN(c2ccc(C)cc2)CC1 (configuration not stated)
    1.6, 0.6, -24, -18, ?, -22
COc1ccc2c(c1)C(CC(=O)NN)CCC2 (configuration not stated)
    0.2, -1.3, -15, -24, 8.6%, -6
CC(=O)c1cccc(NC(=O)CCCNC(=O)c2ccc(Cl)cc2)c1
    -0.3, -4.2, -6, 1, -1.4%, -11
CCC(=O)Nc1ccc(C(=O)NNC(=O)C(c2ccccc2)c2ccccc2)cc1
    -0.1, -0.7, 0, -3, 5.8%, -13
O=C1C=C(N2CCOCC2)CCC1
    -0.6, -2.1, 1, 0, 0.1%, -5
CC(=O)C1=C(O)C(=O)N(c2ccc(O)cc2)C1c1cccc(F)c1 (configuration not stated)
    1.3, 0.8, 3, 1, -1.3%, -6
O=C(CSC1=NC2(CCCCC2)N=C1c1ccccc1)Nc1ccc2c(c1)OCCO2
    3.1, 0.0, -3, 0, 1.4%, -4
COc1ccc(NC(=O)C2CCCN(c3cnccn3)C2)c(OC)c1 (configuration not stated)
    -0.6&4.4, -1.9, 1, -6, 0.6%&-0.3%, -3
C#CCOCCOCCOCCNc1nc(N2CCN(C(=O)[C@H]([C@@H](C)CC)n3cc(CCC(=O)O)nn3)CC2)nc(N2CCN(C(=O)[C@H](CCCCN)n3cc(CCCC)nn3)CC2)n1
    0.7, -1.2, 6, 5, -1.3%, -2
CCOC(=O)[C@]12CCC=C1N(CCC1=CCCCC1)C(=O)[C@H](CC(=O)NCc1ccc(C)o1)C2
    -0.6, ., -7, 2, 0.7%, .
Cc1ccc(-c2nc3ccccc3c(=O)o2)cc1
    -0.9, -1.7, 1, ., 1.2%, 8
CCn1nc(NC(=O)C(C)C)c2cc3cccc(C)c3nc21
    1.4, -6.2, 25, ., 11%, -10
Cn1nc(C(=O)Nc2ccc(S(=O)(=O)NCc3ccco3)cc2)c2ccccc2c1=O
    0.1, 1.8, -6, -18, 2.0%, 1
COc1cccc(C2=NOC(C(=O)Nc3ccc4c(c3)OCO4)C2)c1 (configuration not stated)
    0.7, -2.2, -7, -6, -2.6%, -14
NC(=O)c1sc2nc3c(c(-c4ccco4)c2c1N)CCC3
    1.0, 0.8, -71*, -7, ., 8
CCCC(=O)OCCNC(=O)c1cc2ccccc2oc1=O
    0.7, -1.9, 2, -4, -0.9%, -8
O=C(CN1C(=O)NC2(CCCCCC2)C1=O)NCc1cccs1
    -0.2, -1.8, 3, ., -0.9%, -7
CC(C)CCNC(=O)c1cc(-c2cccs2)nc2ccccc12
    2.6, -4.0, 4, ., 5.7%, -5
Cc1c(Cl)cccc1NC(=O)CSc1nnc(CCNC(=O)OC(C)(C)C)o1
    -1.5, 1.5, -1, 6, -3.1%, -5
O=C(c1cc([N+](=O)[O-])ccc1N1CCOCC1)N1CCOCC1
    0.5, 1.1, 6, 3, 2.7%, 3
O=C(CNC(=O)C1COc2ccccc2O1)N/N=C/c1ccc(O)cc1O (configuration not stated)
    0.0, -3.7, -88*, -88*, -1.4%, -7
Cc1ccccc1NC(=S)/C(=C(\[O-])c1ccc(C)c([N+](=O)[O-])c1)[n+]1ccccc1
    -0.3, -2.8, -16, -7, -1.2%, -18
COC(=O)c1ccc(NC(=O)C2CCN(S(C)(=O)=O)CC2)cc1
    0.1, -2.8, 0, 1, -1.0%, -17
O=C(CCCOc1ccccc1)NC1CCCc2ccccc21 (configuration not stated)
    -0.1, -5.4, 3, -15, -0.6%, -27
CCOC(=O)C1CCN(C(C(=O)Nc2ccc3c(c2)OCCO3)c2ccccc2)CC1 (configuration not stated)
    0.3, -3.6, -3, -5, -0.3%, -11
O=C(N/N=C/c1ccc[nH]1)c1ccccc1O
    0.4, -4.9, 0, 0, -1.8%, -28
Cc1ccccc1N(CC(=O)NC1CCCC1)C(=O)C1(C)CC(=O)N=C2C=CC=CN21 (configuration not stated)
    -0.4, -1.5, 29, 1, 0.8%, 0
Cn1nc(C(=O)Nc2ccccc2)c2c1-c1ccccc1S(=O)(=O)C2
    -0.7, 0.1, 2, 12, 1.5%, -4
Cc1ccc(N2C(=O)C(NC(=O)c3ccccc3)(C(F)(F)F)C3=C2CC(C)(C)CC3=O)cc1 (configuration not stated)
    -0.4, 1.4, 2, 9, 4.6%, -4
